Arbovirus inh: arbovirus infection inhibition; arbovirus infection cell-based antiviral screen; inhibition, % at 10 µM; 0.37% of 200,000 active;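 active = inhibition from about 30%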;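 also: bluetongue infection of BSR cells; cell survival read as ATP light after 72 h; 0% = infected wells without compound and 100% = uninfected wells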
YopH PTP inh: blocks Yersinia enterocolitica YopH tyrosine phosphatase | fluorescence Ex485/Em525 | inhibition, %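 (about 10 µM by stock and volumes)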 | 0.16% of 140,000 active;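 active = inhibition of 50% or more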;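 also: controls were vehicle for no effect and minimum signal wells for full effect; inactives centre near -20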
RecA splice inh: inhibitors of M. tuberculosis RecA intein splicing. 0.75% of 290,000 active. P9WHJ3. inhibition, %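 (about 9 µM by stock and volumes)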. cell-free RecA intein splicing, fluorescence; in the data active = inhibition above about 30%; inconclusive = no clear call, values can overlap the other calls;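 also: 0% = vehicle wells and 100% = reference inhibitor control wells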
Target sequence (P9WHJ3 whole entry, looked up, canonical isoform): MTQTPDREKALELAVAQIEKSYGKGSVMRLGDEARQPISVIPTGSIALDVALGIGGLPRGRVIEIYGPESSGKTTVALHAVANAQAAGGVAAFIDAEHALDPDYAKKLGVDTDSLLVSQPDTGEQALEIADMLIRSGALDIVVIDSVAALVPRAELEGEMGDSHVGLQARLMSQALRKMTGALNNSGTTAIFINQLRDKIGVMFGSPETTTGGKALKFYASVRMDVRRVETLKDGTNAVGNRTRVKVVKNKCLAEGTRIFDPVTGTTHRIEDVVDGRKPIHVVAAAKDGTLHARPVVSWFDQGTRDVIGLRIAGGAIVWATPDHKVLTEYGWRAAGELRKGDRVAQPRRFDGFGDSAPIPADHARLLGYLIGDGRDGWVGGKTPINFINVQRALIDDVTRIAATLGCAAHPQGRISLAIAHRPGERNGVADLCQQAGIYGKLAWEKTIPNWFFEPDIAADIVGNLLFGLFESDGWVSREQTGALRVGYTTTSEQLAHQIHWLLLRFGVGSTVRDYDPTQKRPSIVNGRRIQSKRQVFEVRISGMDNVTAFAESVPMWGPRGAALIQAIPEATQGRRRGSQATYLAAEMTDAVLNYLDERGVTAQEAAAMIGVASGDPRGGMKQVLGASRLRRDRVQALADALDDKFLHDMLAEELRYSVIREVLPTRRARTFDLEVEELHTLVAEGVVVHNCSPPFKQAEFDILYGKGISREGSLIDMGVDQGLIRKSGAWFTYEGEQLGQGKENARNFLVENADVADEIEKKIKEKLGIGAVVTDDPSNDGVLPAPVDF
Mtb betalactam: beta-lactam sensitization of Mtb H37Rv; inhibition, % at 25 µM; AID 434955; 0.27% of 330,000 active; M. tuberculosis H37Rv growth with meropenem, percent inhibition; hits of this screen are not shown here;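 active = about 74% or more and at least 40 points above the plate without the antibiotic, then above 30% in a dose series; inconclusive = first-round hits that could not be retested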;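 also: growth measured after seven days incubation then overnight dye step; 0% = bacteria only wells and 100% = bacteria with antibiotic; twin plates without the antibiotic show which effects depend on it; some results filed as inactive read as strong as hits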
Mtb H37Rv: M. tuberculosis H37Rv growth inhibitors, H37Rv strain (AID 1626); one-dose inhibition, % at 10 µM; IC50 in µM for titrated hits; 0.95% of 220,000 active; M. tuberculosis H37Rv growth inhibition; higher % means a stronger effect;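 active = confirmed in a dose series; inconclusive = inhibition above 80% but not taken into the dose series; inactive = below 80% or under 30% at every dose of the series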;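 also: bacteria incubated seven days before Alamar blue readout; 0% = bacteria only wells and 100% = bacteria with antibiotic wells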
Arbovirus inh repeat: also measured in Arbovirus inh; calls as there; inhibition, %; measured here: 10K subset replicate screen; many hits read low in the repeat;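 first of two repeat runs on a subset; 0% = infected and 100% = uninfected wells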
An asterisk follows results filed as active; i = inactive; ? = inconclusive; . = no result given. A portion of the library (hit frequency here may not be typical).

SMILES	Arbovirus inh	YopH PTP inh	RecA splice inh	Mtb betalactam	Mtb H37Rv	others
CC(c1ccccn1)N(Cc1ccco1)C(=S)Nc1cccc(F)c1 (configuration not stated)	17	.	1.1	-5	2%
CNc1ccc(/C=C/C(=O)c2cccc3ccccc23)cc1[N+](=O)[O-]	5	-5	0.6	1	10%
Cc1ccsc1CN(C)C(=O)c1ccc(Oc2ccccc2)cc1	.	.	18	10	.
O=C(COc1ccc(Cl)cc1Cl)NC(=S)N1CCCc2ccccc21	-3	-6	3.4	-3	-5%
CCn1c(=O)c2c(cnn2C)c2ccccc21	14	-14	0.3	-10	2%
O=C(O)C1CCN(c2nc(-c3ccccc3)nc3c2oc2ccccc23)CC1	11	-24	-2.6	69	3%
Cc1ccc(NC(=O)Cc2cc(C(=O)O)c3ccccc3n2)c(C)c1	1	.	1.3	0	5%
COc1ccccc1NC(=O)CSc1nnnn1C	9	-21	-0.9	-5	6%	Arbovirus inh repeat=0
Cc1ccc(S(=O)(=O)N2CCN(C(=O)c3c(-c4ccccc4)noc3C)CC2)cc1	.	.	-0.1	11	.
C=CCn1c(=O)n(CCOC)c(=O)c2sc3ccccc3c21	1	-20	5.5	-6	-2%	Arbovirus inh repeat=0
COc1cccc(NC(=O)CN(C)C(=O)c2cc(C)on2)c1	.	.	1.4	-2	.
Cc1ccnc(NS(=O)(=O)c2ccc(NC(=O)C34CC5CC(CC(C5)C3)C4)cc2)n1	-9	-14	-0.6	?	-10%
O=C(COC(=O)c1ccc(Cl)nc1)Nc1c(Cl)cccc1C(F)(F)F	.	.	10	-5	.
COC(=O)C1CC(O)CN1C(=O)Nc1cccc(C(F)(F)F)c1 (configuration not stated)	6	.	-1.3	-1	-2%
CCOC(=O)c1c(NC(=O)CSc2nc3ccccc3o2)sc(C(C)=O)c1C	1	-19	-0.1	2	0%
CCN1CCCC1CNC(=O)c1ccc2c(c1)NC(=O)/C(=C\c1ccc(OC)c(OC)c1)S2 (configuration not stated)	.	.	-0.7	20	.
O=C(Nc1cccc(-c2nnc(-c3ccccc3)o2)c1)C1CCCO1 (configuration not stated)	0	-39	-1.8	5	2%
N#CC1=C(SCC(=O)c2ccc(Br)cc2)NC2=C(C(=O)CCC2)C1c1ccco1 (configuration not stated)	-17	-5	.	94	.
CCn1c(SC)nnc1-c1ccc(S(=O)(=O)N2CCCCC2)cc1	.	-65	-2.9	1	-4%
CCCCn1cnc2c(cnn2-c2ccc(Cl)cc2)c1=O	4	4	-1.9	-17	-7%
CN1CCC(=NNC(=O)c2cc(-c3ccc(Cl)cc3)n[nH]2)CC1	.	.	2.3	-8	-5%
COc1cc2c(cc1OC)CN(C(=O)c1ccc(S(=O)(=O)N3CCCCC3)cc1)CC2	10	-27	-5.1	4	-2%
COc1ccc(CN(C)C(C)C(=O)Nc2ccc(S(=O)(=O)N3CCOCC3)cc2)c(OC)c1 (configuration not stated)	16	.	3.3	5	-6%
O=C(Cc1ccc2cccnc2c1)c1ccc(O)cc1O	3	-9	-1.3	14	3%
C/C(=N\NC(=O)Cc1cccn1C)c1ccc2ccccc2c1	-5	-9	4.9	-7	-4%

Next section.
SMILES	Arbovirus inh	YopH PTP inh	RecA splice inh	Mtb betalactam	Mtb H37Rv	others
COc1cccc2cc(C(=O)CS(=O)(=O)c3ccc(Cl)cc3)c(=O)oc12	.	.	-1.7	-6	.
O=c1oc2cc(O)ccc2cc1-c1ccccc1	.	.	i	73	.
Cc1ccc(CCN2CC(C(=O)NCCCN3CCCCCC3)CC2=O)cc1 (configuration not stated)	5	-34	-5.2	-13	-2%
O=S(=O)(Nc1cccc2ccccc12)c1cccc2nonc12	.	.	4.5	1	17%
COc1cc(C(O)P(=O)(OCCC(C)C)c2ccc(N(C)C)cc2)cc(OC)c1OC (configuration not stated)	.	.	0.1	4	2%
O=C(Nc1ccccn1)c1ccc(COc2ccccc2Cl)o1	-31	3	0.1	1	-5%
CCOCCCNC(=O)C(c1ccc(Cl)cc1)N(Cc1cccs1)C(=O)c1ccccn1 (configuration not stated)	0	.	0.3	2	5%
CCCCC(NS(=O)(=O)c1ccc(C)cc1)C(=O)Oc1ccc2c3c(c(=O)oc2c1)CCC3 (configuration not stated)	7	-33	-2.0	18	62%
CCCN(CCC)Cc1cc2ccccc2c2c1COC2	2	-3	-1.2	0	-14%
C=CCc1ccccc1OCC(CN1CCCCC1)OC(C)=O (configuration not stated)	9	-8	1.5	-2	3%
O=C(O)Cc1sc(NC2CCCCC2)nc1-c1ccc(Cl)cc1	.	.	2.4	10	.
COC(=O)C1C(=O)C2=C(CC1C)NC(=O)CC2c1ccccc1 (configuration not stated)	4	-21	.	1	-10%
CCOc1nc(-c2ccccc2)ccc1-c1noc(COC)n1	-4	10	5.2	55	-2%
Cc1nn(C)c(C)c1S(=O)(=O)N1CCC(C(=O)NC2CCCc3ccccc32)CC1 (configuration not stated)	8	-53	-0.9	-10	-7%
Cc1cc(=O)oc2cc(OCC(=O)Nc3nccs3)ccc12	.	.	-0.1	0	.
COc1ccc(CNC(=O)C(NC(C)=O)C(C)C)cc1OC (configuration not stated)	10	.	-1.9	-4	3%
Cc1onc(-c2c(F)cccc2Cl)c1C(=O)OCC(=O)Nc1c(C)n(C)n(-c2ccccc2)c1=O	4	0	-3.4	-2	-7%	Arbovirus inh repeat=2
COc1ccc(CNC(=O)c2noc3c2CCCC3)cc1	-5	-31	-0.6	-2	6%
COc1ccc2oc(C(=O)OCC(=O)NCCN3C(=O)CSC3=O)c(C)c2c1	-2	-18	-2.8	-5	-4%
O=C(Cn1nnc2ccccc2c1=O)N[C@H](C(=O)O)c1ccccc1	.	.	-1.7	2	-11%
Cc1ccc(S(=O)(=O)NC(C)C(=O)NC2CCCCCC2)cc1 (configuration not stated)	-2	-19	7.0	-15	4%
Cn1c2c(c(=O)n(C)c1=O)CN(Cc1ccc(F)cc1)CN2	9	-39	-2.6	-3	-5%
CCCc1nc2ccccc2n1CCOc1ccccc1	-1	-24	2.6	5	-5%
Cc1cccc(C(=O)NCCNC(=O)c2cccc(C)c2)c1	7	-17	.	-1	2%
COc1ccc(N2CCN(C(=O)CNC(=O)c3cn(-c4ccccc4OC)c(=O)c4ccccc34)CC2)cc1	0	.	-0.7	-3	1%

More entries.
SMILES	Arbovirus inh	YopH PTP inh	RecA splice inh	Mtb betalactam	Mtb H37Rv	others
Cc1cccc(NC(=O)CN2C(=O)N/C(=C\c3ccc(-c4cccc(C(=O)O)c4)o3)C2=O)c1	.	.	-37	2	4%
O=C(CCCC(=O)Nc1ccccc1Br)N/N=C/c1c(F)cccc1Cl	.	.	-0.7	2	.
O=C1NC(c2cc3c(cc2Cl)OCO3)Oc2ccccc21 (configuration not stated)	2	-17	0.4	3	1%
O=C(CSc1nnc(COc2ccccc2)n1-c1ccccc1)c1ccccc1	1	-19	.	-1	-13%
O=C(Nc1ccc(O)cc1)/C(=C\c1cccs1)NC(=O)c1ccccc1	-11	12	1.4	6	12%
CCc1ccc(CNC(=O)Cn2nc(-c3ccccc3)ccc2=O)cc1	-5	.	0.6	-4	5%
Cn1c(=O)c(C(=O)COC(=O)c2cc(-c3ccco3)nc3ccccc23)c(N)n(Cc2ccccc2)c1=O	3	-3	1.4	75	.
CCOC(=O)C1(CC)NC(c2ccco2)C2C(=O)N(c3ccc(C)cc3)C(=O)C21 (configuration not stated)	8	-21	2.2	-5	-5%
O=C(NC(Cc1ccccc1)C(=O)O)C1CCCCC1 (configuration not stated)	-6	-27	-3.1	4	-8%
CC(=O)Nc1ccc(S(=O)(=O)N2CCN(C(=O)c3ncoc3-c3ccccc3C)CC2)cc1	.	.	2.2	-7	.
O=C(N/N=C/c1cc([N+](=O)[O-])ccc1Cl)c1cc(-c2ccccc2)nc2ccccc12	.	.	-1.6	-2	0%
Cc1nc2ncnn2c(N2CCN(C(c3ccccc3)c3ccccc3)CC2)c1C	-30	-8	16	.	-2%
CCOC(=O)C1=C(C)NC2=C(C(=O)CC(c3ccc(OC)c(OC)c3)C2)C1c1ccc(C)o1 (configuration not stated)	-10	-25	.	-5	.
CC(C)CCN1C(=O)C2(OCCCO2)c2cc(Cl)ccc21	.	.	1.9	6	.
CSCCC1C(=O)OC2(C)CC(C)(C)NC(=S)N12 (configuration not stated)	-5	-19	-0.7	-5	-9%
O=C(O)CCCn1cc(NC(=O)c2cc(F)c(F)cc2Cl)cn1	2	.	7.7	-1	-6%
CC1CCCCC1NC(=O)COC(=O)CNC(=O)c1cccc(F)c1 (configuration not stated)	5	.	1.4	-6	-1%
CCc1c(C)[nH]c(C(=O)OCc2ccccc2)c1C	1	.	-4.3	.	-4%
CCC/C=C1/CCCOC(C(=O)NCc2cc(C)n(C)n2)(C(F)(F)F)C1 (configuration not stated)	.	.	-1.1	-3	-10%
[O-]/C(=C(\C(=S)Nc1ccc(Cl)cc1)[n+]1ccccc1)c1ccc(OC(F)F)cc1	10	.	7.6	4	5%
COc1ccc(NS(=O)(=O)c2cc(C(=O)N3CCN(C(C)=O)CC3)ccc2Cl)cc1	13	.	.	-5	-1%
CC1(C)CC(=O)C(C=Nc2ccc(NC3=C(C#N)C(=O)CC(C)(C)C3)cc2)=C(O)C1	2	.	5.2	-1	0%
COc1ccc(-c2nc(NC(=O)c3ccccc3)sc2-c2ccc([N+](=O)[O-])cc2)cc1	-10	-17	-7.8	-1	.
CCN(Cc1ccccc1)S(=O)(=O)CCNC(=O)c1ccccc1	.	.	-1.4	-3	.

Compounds from the list above that have a Cl atom:
SMILES	Arbovirus inh	YopH PTP inh	RecA splice inh	Mtb betalactam	Mtb H37Rv	others
O=C(COc1ccc(Cl)cc1Cl)NC(=S)N1CCCc2ccccc21	-3	-6	3.4	-3	-5%
O=C(COC(=O)c1ccc(Cl)nc1)Nc1c(Cl)cccc1C(F)(F)F	.	.	10	-5	.
CCCCn1cnc2c(cnn2-c2ccc(Cl)cc2)c1=O	4	4	-1.9	-17	-7%
CN1CCC(=NNC(=O)c2cc(-c3ccc(Cl)cc3)n[nH]2)CC1	.	.	2.3	-8	-5%
COc1cccc2cc(C(=O)CS(=O)(=O)c3ccc(Cl)cc3)c(=O)oc12	.	.	-1.7	-6	.
O=C(Nc1ccccn1)c1ccc(COc2ccccc2Cl)o1	-31	3	0.1	1	-5%
CCOCCCNC(=O)C(c1ccc(Cl)cc1)N(Cc1cccs1)C(=O)c1ccccn1 (configuration not stated)	0	.	0.3	2	5%
O=C(O)Cc1sc(NC2CCCCC2)nc1-c1ccc(Cl)cc1	.	.	2.4	10	.
Cc1onc(-c2c(F)cccc2Cl)c1C(=O)OCC(=O)Nc1c(C)n(C)n(-c2ccccc2)c1=O	4	0	-3.4	-2	-7%	Arbovirus inh repeat=2
O=C(CCCC(=O)Nc1ccccc1Br)N/N=C/c1c(F)cccc1Cl	.	.	-0.7	2	.
O=C1NC(c2cc3c(cc2Cl)OCO3)Oc2ccccc21 (configuration not stated)	2	-17	0.4	3	1%
O=C(N/N=C/c1cc([N+](=O)[O-])ccc1Cl)c1cc(-c2ccccc2)nc2ccccc12	.	.	-1.6	-2	0%
CC(C)CCN1C(=O)C2(OCCCO2)c2cc(Cl)ccc21	.	.	1.9	6	.
O=C(O)CCCn1cc(NC(=O)c2cc(F)c(F)cc2Cl)cn1	2	.	7.7	-1	-6%
[O-]/C(=C(\C(=S)Nc1ccc(Cl)cc1)[n+]1ccccc1)c1ccc(OC(F)F)cc1	10	.	7.6	4	5%
COc1ccc(NS(=O)(=O)c2cc(C(=O)N3CCN(C(C)=O)CC3)ccc2Cl)cc1	13	.	.	-5	-1%

Compound activity (PubChem)
